# Screens from PubChem.
# VDR inh = vitamin D3 receptor (human) inhibition | VDR-SRC2-3 peptide fluorescence polarization, 2 h | 400,000 compounds, 0.93% hits | AID 504847 | P11473 | Potency, µM, for inactives: max response, negative = inhibition, actives largely listed as inhibitors; active = well fitted inhibition curve with a large enough effect; inconclusive = small, poorly fitted or top-dose-only effect, or another doubt; inactive = no such curve, though single readings can be large or run the other way; note: series mostly up to about 120 µM
# Target sequence (P11473 whole entry, looked up): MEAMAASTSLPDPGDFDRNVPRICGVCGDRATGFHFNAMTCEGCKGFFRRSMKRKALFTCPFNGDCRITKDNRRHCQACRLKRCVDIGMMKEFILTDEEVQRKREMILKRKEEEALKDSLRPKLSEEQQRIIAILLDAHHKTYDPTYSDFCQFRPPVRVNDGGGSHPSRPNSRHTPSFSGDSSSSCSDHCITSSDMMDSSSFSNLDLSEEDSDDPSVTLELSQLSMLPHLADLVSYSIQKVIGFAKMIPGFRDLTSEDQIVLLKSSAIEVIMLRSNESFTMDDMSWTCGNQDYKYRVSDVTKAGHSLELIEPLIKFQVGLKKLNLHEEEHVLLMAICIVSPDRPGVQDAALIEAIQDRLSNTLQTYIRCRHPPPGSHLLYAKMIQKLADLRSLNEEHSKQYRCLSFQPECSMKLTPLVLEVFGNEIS
#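 Fluorescence polarization assay of small-molecule disruption of VDR binding to coregulator peptide SRC2-3. Compounds and controls pin-transferred, then read after 2 h incubation at ambient room temperature.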
# * hit, by the source's call; ? = inconclusive; & = joins results of further samples. % is set by controls: 0 for no effect and ±100 for the full control effect; potency is the fitted concentration of half-maximal effect. This is a subset. The share of hits here may be higher or lower than overall.
nr	molecule	VDR inh
1	Cc1oc(/N=C/c2ccc3c(c2)OCO3)c(C#N)c1C	4%
2	COCCCNC(=O)C(C)N1c2cccc3cccc(c23)S1(=O)=O (stereo unspecified)	71µM*
3	O=C(NCc1ccccn1)c1ccc(CNS(=O)(=O)c2ccc(F)cc2)cc1	-4%
4	CC(=O)c1ccc(NC(=O)CSCC(=O)Nc2ccc3ccccc3c2)cc1	-7%
5	COC(=O)c1cccnc1-n1c(=O)c2cccnc2n(Cc2cccc(OC)c2)c1=O	-7%
6	COc1ccc(C(=O)Cn2nnc(-c3cccs3)n2)cc1	3%
7	O=C(O)CC(NC(=O)OCc1ccccc1)c1ccc(Br)cc1 (stereo unspecified)	-14%
8	O=C(C[C@H]1C(=O)N(Cc2ccccc2)C[C@@H]1Cc1ccccc1)Nc1ccccc1	-17%
9	COc1ccc(-c2ccc(C(C)=O)cc2)cc1[C@H]1[C@@H]2C=CCC[C@@]2(C)C(=O)N1Cc1ccccc1	-13%
10	NC12CC3CC(CC(C3)C1)C2	-9%&-6%&-13%&-10%&-3%
11	COc1cccc(N2CC(=O)Nc3c(oc4nc(-c5ccccc5)cc(C)c34)C2=O)c1	0%
12	Cn1cnc2c(ncn2C2OC(CO)C(O)C2O)c1=S (stereo unspecified)	-7%
13	Cc1cccc(C(=O)OCC(=O)Nc2c(C)n(C)n(-c3ccccc3)c2=O)c1	2%
14	CN(C)c1ccc(-c2cncnc2NCc2cccnc2)cc1	?
15	CCc1noc(C)c1C(=O)N1CCN(S(=O)(=O)c2ccc(Br)cc2Cl)CC1	-4%
16	Cc1cc(NC(=O)CCN2C(=O)C3C4CCC(C4)C3C2=O)c(C)cc1Br (stereo unspecified)	11%
17	Cc1nc(N)nc(Nc2ccc(C#N)cc2)c1Br	17%
18	CCOC(=O)C1CCCN(C(=O)c2ccc3oc(CCc4ccccc4)nc3c2)C1 (stereo unspecified)	-10%
19	COc1ccc(CNC(=O)c2ccc3nc(CCc4ccccc4)oc3c2)cc1	11%
20	COc1ccc2c(C)cc(SCC(=O)NC3CCCC3)nc2c1	-19%
21	COc1ccc(CC(NC(C)=O)C(=O)N2CCN(C(=O)Nc3cccc(Cl)c3)CC2)cc1OC (stereo unspecified)	20%
22	Cc1ccc(NC(=O)c2cc([N+](=O)[O-])ccc2N2CCOCC2)cc1S(=O)(=O)N(C)C	18%
23	O=S(=O)(NCCS(=O)(=O)N1CCN(c2ccccc2)CC1)c1ccccc1	-15%&9%
24	Cc1ccc(C(=O)Nc2ccc(S(=O)(=O)N(Cc3ccccc3)c3ccccc3)cc2)cc1	4%
25	CCc1ccc(N/C(N)=N/c2nc(CSc3ncccn3)cc(=O)[nH]2)cc1	11%
26	COCCn1c(SCC(=O)N(C)C2CCS(=O)(=O)C2)nc2ccccc2c1=O (stereo unspecified)	-7%
27	COc1ccc(-c2nn(-c3ccccc3)cc2/C=C(\C#N)C(N)=O)cc1[N+](=O)[O-]	6%
28	CC(Oc1ccccc1)C(=O)Nc1ccccc1C(=O)OCc1cc(=O)n2nc(C3CC3)sc2n1 (stereo unspecified)	21%
29	CC1NC(C)c2c(ccc3ccccc23)O1 (stereo unspecified)	28%
30	COCCCNC(=O)CCC(=O)Nc1ccc2nc(N3CCOCC3)cc(C)c2c1	-14%
31	O=C(c1ccc(S(=O)(=O)N2CCC(c3nc4ccccc4s3)CC2)cc1)N1CCOCC1	18%
32	COc1cccc(NC(=O)CSc2nc3ccccc3c(=O)n2CCCC(=O)N2CCCC2)c1	-28%
33	Cc1cc(Cl)c(S(=O)(=O)NC(C(=O)O)c2ccccc2)cc1OCC(N)=O (stereo unspecified)	-4%
34	COc1ccc(/C(=C/c2ccc(OC(F)F)c(OC)c2)C(=O)O)cc1OC	-28%
35	O=c1cc(-c2ccccc2)n2c(SCc3cccc([N+](=O)[O-])c3)nnc2[nH]1	0%
36	Nc1nc(-c2cccs2)cs1	4%
37	CC(=O)c1ccccc1C(=O)N1CCC(n2nccc2NC(=O)C2CC2)CC1	4%
38	COc1ccccc1CNC(=O)CN1C(=O)NC(Cc2ccccc2)(c2ccccc2)C1=O (stereo unspecified)	0%
39	COc1ccc(NC(=O)CSc2c3c(nc4ccc(Cl)cc24)CCCC3)cc1Cl	-14%
40	CCCCOc1c(Cl)cc(C(=O)N2CCN(CC(=O)N3CCCC3)CC2)cc1OCC	8%
41	CCOC(=O)C1=C(COC(=O)CCOc2ccccc2C)NC(=O)NC1C (stereo unspecified)	2%
42	COc1cc(Nc2nc(-c3ccccc3)c3cc(C)ccc3n2)cc(OC)c1OC	-13%
43	CN(CC(=O)Nc1c(Cl)cccc1Cl)C(=O)c1ccccc1Cc1ccccc1	0%
44	O=C1CC2(CCN(C(=O)C3CC(=O)N(c4ccc(F)cc4)C3)CC2)Oc2ccccc21 (stereo unspecified)	3%
45	CCNC(=O)C(CC(C)C)NC(=O)C(CO)NC(=O)C1CCC(=O)N1 (stereo unspecified)	-2%
46	COc1cccc(C(=O)N2CCN(C(=O)c3cccc(F)c3)CC2)c1	-3%
47	CCn1c(N2CCN(CC(=O)c3c[nH]c4ccccc34)CC2)nc2c1c(=O)[nH]c(=O)n2C	0%
48	Cc1ccsc1/C=C1/SC(N2CC(C)OC(C)C2)=NC1=O (stereo unspecified)	-17%
49	O=C(Cc1ccccc1)c1c[nH]c(C(=O)NCCCN2CCOCC2)c1	14%
50	COC(=O)C1(C(=O)OC)CC2=CCC3C(=O)N(c4ccccc4)C(=O)C3C2Cc2ccccc2[C@@H]1C[N+](=O)[O-] (stereo partly specified)	6%
51	COC(=O)[C@H](Cc1ccccc1)NC(=O)Cn1cnc2c(OCc3ccccc3)ncnc21	4%
52	CCSc1nnc(Nc2ccc(C)cc2)s1	-9%
53	COc1cc2nc(=S)n3[nH]c(CCn4nc(C)cc4C)nc3c2cc1OC	-13%
54	Cc1cccc(/C(N)=N/OC(=O)COc2ccc(Cl)cc2)c1	4%
55	CN(C(=O)CSc1ncnc2scc(-c3ccccc3)c12)C1CCS(=O)(=O)C1 (stereo unspecified)	-7%
56	COc1ccc(CCN2CCCn3c2nc2c3c(=O)n(CC(C)C)c(=O)n2C)cc1OC	4%
57	Cc1cccc2sc(NC(=O)CSCc3ccccc3)nc12	11%
58	Cc1nn(C)c(C)c1C1Nc2ccccc2C(=O)N1O (stereo unspecified)	13%
59	O=C(CSC1=Nc2ccccc2C2CC=NN12)NCc1ccco1 (stereo unspecified)	-20%
60	Cc1cccc(N2CCN(C(=O)c3cccn4c(=O)c5c(C)c(C)sc5nc34)CC2)c1C	1%

# Copied from above, entries 41 to 46
nr	molecule	VDR inh
41	CCOC(=O)C1=C(COC(=O)CCOc2ccccc2C)NC(=O)NC1C (stereo unspecified)	2%
42	COc1cc(Nc2nc(-c3ccccc3)c3cc(C)ccc3n2)cc(OC)c1OC	-13%
43	CN(CC(=O)Nc1c(Cl)cccc1Cl)C(=O)c1ccccc1Cc1ccccc1	0%
44	O=C1CC2(CCN(C(=O)C3CC(=O)N(c4ccc(F)cc4)C3)CC2)Oc2ccccc21 (stereo unspecified)	3%
45	CCNC(=O)C(CC(C)C)NC(=O)C(CO)NC(=O)C1CCC(=O)N1 (stereo unspecified)	-2%
46	COc1cccc(C(=O)N2CCN(C(=O)c3cccc(F)c3)CC2)c1	-3%

# Continuation:
no.	Molecule	VDR inh
61	O=C1COc2ccc(C(=O)COC(=O)c3nc(Cl)ccc3Cl)cc2N1	-18%
62	CC(C)OC(=O)COc1cc(O)c2c(=O)cc(-c3ccccc3)oc2c1	-11%
63	CSc1ccc(C(=O)C2CCCN(C(=O)CCc3c(C)nn(C)c3C)C2)cc1 (stereo unspecified)	-24%
64	CCOC(=O)c1ccc2ncc(C(=O)OCC)c(NCCN(C)C)c2c1	-10%
65	COc1ccc(Cl)cc1NC(=O)CSc1nnc(Cc2cccn2C)n1-c1ccc(F)cc1	?
66	O=C(CN1CCOCC1)Nc1ncccn1	-7%
67	CN1CCN(CCCNC(=O)Cn2c(-c3cccs3)cc3ccccc32)CC1	2%
68	CCOc1ccccc1N1CC(C(=O)Nc2cc(S(C)(=O)=O)ccc2Cl)CC1=O (stereo unspecified)	-10%
69	CC(C)(C)NC(=O)CSc1nc(N)cc(=O)[nH]1	-2%
70	NC(=O)COC(=O)c1ccccc1OCc1ccccc1	-9%
71	COc1ccc(NC(=O)C2CCN(S(=O)(=O)c3c(C)nn(C)c3C)CC2)cc1	-1%
72	c1ccc(-c2nc3nonc3c3nc4ccccc4n23)cc1	11%

# Compounds from the list above that have a cyano group, in the order listed:
no.	Molecule	VDR inh
1	Cc1oc(/N=C/c2ccc3c(c2)OCO3)c(C#N)c1C	4%
17	Cc1nc(N)nc(Nc2ccc(C#N)cc2)c1Br	17%
27	COc1ccc(-c2nn(-c3ccccc3)cc2/C=C(\C#N)C(N)=O)cc1[N+](=O)[O-]	6%

# Remaining list, next part
no.	Molecule	VDR inh
73	Cc1ccc(C)c(CN2C(=O)C3(c4ccccc42)N(c2cccc(C(F)(F)F)c2)C(=O)CS3(=O)=O)c1 (stereo unspecified)	-9%
74	CCN(CC)S(=O)(=O)c1cc(NS(=O)(=O)c2ccccc2)ccc1C	-2%
75	COc1ccccc1-n1cnnc1SCC(=O)NCC1CCCO1 (stereo unspecified)	5%
76	CC(C)c1ccccc1NC(=O)CC1(CC(=O)O)CCCC1	1%
77	CCOC(=O)CNC(=O)O[C@@H]1Cc2cc(OC)ccc2O[C@H]1c1cccc(OC)c1	-9%
78	CCCCc1cc(=O)oc2c(C)c(OCC(=O)NCC3CCC(C(=O)O)CC3)ccc12 (stereo unspecified)	4%
79	CN1CCN(/N=C/c2nc(-c3ccc(Cl)cc3)n3ccccc23)CC1	-18%
80	CCOc1ccc(NC(=O)CN(C)C(=O)C2CCCC2)cc1OCC	-6%
81	CC1CCCN(C(=O)C(Cc2ccccc2)n2cccc2)C1 (stereo unspecified)	-20%
82	CN(Cc1cccc(F)c1)C(=O)C1CC(=O)N(c2ccc3c(c2)OCCO3)C1 (stereo unspecified)	2%
83	COc1cccc(-c2cc(C(=O)Nc3ccc4c(c3)OCO4)no2)c1	0%&-5%
84	COc1ccccc1CNC(=O)c1cc(S(=O)(=O)N2CCOCC2)cn1C	3%
85	COc1ccc(OC)c(C2/C(=C(/O)c3ccc(C)cc3)C(=O)C(=O)N2Cc2ccco2)c1 (stereo unspecified)	10%
86	Cc1nc2ccccc2nc1OCC(=O)NCC(F)(F)F	-13%
87	Cc1cccn2c(=O)c(/C=C(\C#N)C(=O)NCc3ccco3)c(N3CCCCCC3)nc12	-1%
88	Cc1cc(C)cc(N(CC(=O)NCc2ccco2)C(=O)CCC(=O)Nc2nccs2)c1	5%
89	CN(C)c1ccc(CNCc2cccnc2)cc1	-21%
90	Fc1ccccc1OCCCn1ccnc1	12%
91	Cc1ccc(NC(=O)CSc2ncccc2C(=O)Oc2ccccc2Cl)cc1Cl	17%
92	Cc1ccc(-c2onc(C)c2C)cc1S(=O)(=O)Nc1ccccn1	0%
93	COc1ccc(Cn2c(CCC(=O)Nc3cccc(Cl)c3)nc3cccnc32)cc1	-8%
94	CC1CC(C)CN(C(=O)COC(=O)c2ccc3ncsc3c2)C1 (stereo unspecified)	-24%
95	COc1ccc(NC(=O)CSc2nc3[nH]c(=O)[nH]c(=O)c3s2)cc1OC	-20%
96	COc1ccc(-n2c(=O)c(-c3ccc(Cl)cc3)nc3cnc(N4CCNCC4)nc32)cc1	-16%
97	Cc1ccc2scc(N3CCCCC3)c(=O)c2c1	2%
98	O=C(CN1C(=O)c2cccc([N+](=O)[O-])c2C1=O)OCC(=O)N1CCCCC1	-14%
99	O=C(NCC(=O)N(c1ccccc1)C(C(=O)NC1CCCC1)c1ccncc1)c1cccs1 (stereo unspecified)	14%
100	Cc1[nH]c2ccccc2c1CCN(Cc1cccnc1)C(=S)NC(C)(C)C	-24%
101	Cc1ccc(C)c(NC(=O)Cn2ncc3c(C)n(Cc4ccc(F)cc4)c(C)c3c2=O)c1	9%
102	CC(C)(C)C(=O)Nc1nc(=S)ss1	?
103	CCN(CC)C(=O)CSc1nc(C)cc(C)n1	1%
104	O=C(COCc1cc(-c2ccco2)on1)Nc1cccc(Cl)c1Cl	3%
105	Cc1cccc(NC(=O)c2sc(-n3nc(C)c(Cc4ccc5c(c4)OCO5)c3C)nc2C)c1C	-8%
106	Cc1noc(C)c1S(=O)(=O)N1CCC(C(=O)NC2CCCc3ccccc32)CC1 (stereo unspecified)	-11%
107	CC(/C=N/n1c(C2CCCCC2)n[nH]c1=S)=C\c1ccccc1	-20%
108	COc1cccc(OC(=O)c2cc3ccccc3oc2=O)c1	-6%

# Structures listed above that bear a hit mark in VDR inh:
no.	Molecule	VDR inh
2	COCCCNC(=O)C(C)N1c2cccc3cccc(c23)S1(=O)=O (stereo unspecified)	71µM*

# Next section.
no.	Molecule	VDR inh
109	Cc1ccc(Cn2ccnc2SCC(=O)Nc2ccc3c(c2)OCCO3)cc1	16%
110	COc1ccc(C(=O)NCc2ccccc2CN2CCCC2)cc1S(=O)(=O)N1CCOCC1	3%
111	CCCS(=O)(=O)N1CCN(C(=O)c2cccnc2)CC1	-11%
112	CCc1ccc(NC(=O)CSc2nc3ccsc3c(=O)n2C(C)CC)cc1 (stereo unspecified)	8%
113	O=C(NC(=S)Nc1ccc(CN2CCOCC2)cc1)c1ccccc1[N+](=O)[O-]	-12%
114	Cc1cccc(C)c1NC(=O)CNC(=O)c1c(C)nn(-c2ccccc2)c1C	-11%
115	N#Cc1c(-c2ccccc2)nc(SCc2nc(N)nc(N3CCCCC3)n2)[nH]c1=O	-18%
116	CCOc1cc(-c2cc(-c3ccc(OC)cc3)nc(N)c2C#N)ccc1O	9%
117	CCCN1CCN(C(=S)Nc2ccc3nc(N4CCN(CC)CC4)cc(C)c3c2)CC1	8%
118	CC1=C(C(=O)OC(C)C)C(c2ccc(N(C)C)cc2)C2=C(CC(C)(C)CC2=O)N1 (stereo unspecified)	-3%
119	C/C(CC(=O)Nc1cc(C)ccn1)=N\NC(=O)c1ccncc1	8%
120	CN(Cc1nccs1)C(=O)c1ccc(OC2CCN(CCc3ccccc3)CC2)cc1	-3%
121	CC(=O)Oc1ccc(C(=O)Nc2ccc(C3(C#N)CCCC3)cc2)cc1	0%
